Compound activity: PubChem, National Center for Advancing Translational Sciences (NCATS)
Vaccinia Venus – vaccinia inhibition (Venus reporter); Vaccinia virus Venus reporter expression, fluorescence; Potency, µM (series often up to 36.5 µM), for the others: top-dose activity change, negative = inhibition, hits mostly inhibitors; actives 0.46% (n = 330,000); active means well fitted inhibition curve with a large enough effect; inconclusive means small, poorly fitted or top-dose-only effect; inactive means no such curve, though single readings can be large or run the other way; tested in A549 cells; note: nearly all actives have a fitted effect of over 30% in size; inactives centre near -10
Vaccinia mCherry – inhibitors of vaccinia virus infection (mCherry reporter signal). Vaccinia virus mCherry reporter infection, fluorescence; about a quarter of the inactives have no number. Potency, µM (top dose mostly 36.5 µM), for the others: at the top dose activity change, negative = inhibition, actives largely listed as inhibitors. actives 0.63% (n = 310,000); active = well fitted inhibition curve with a large enough effect; inconclusive = small, poorly fitted or top-dose-only effect; inactive = no such curve, though single readings can be large or run the other way; tested in A549 cells; note: nearly all actives have a fitted effect of over 35% in size; inactives centre near -10
* = called active by the depositor; i = inactive; u = inconclusive; x = no result given; [ ] = remark or other dose. % is set by controls: 0 for no effect and ±100 for the full control effect; potency is the fitted concentration of half-maximal effect.

Start of the data: the first four compounds, to show the layout:
SMILES	Vaccinia Venus	Vaccinia mCherry
COc1cccc(C2=NN(C(C)=O)C(c3cccs3)C2)c1 (stereo not drawn)	-11%	-18%
CCC(/C=N/NC(=O)CCCCC(=O)N/N=C/C(CC)CC)CC	-12%	-1%
Cc1ccc(-c2[nH]nc(N)c2N=Nc2cccc(Cl)c2C)cc1	u	u
COCCCNC(=O)c1cc(C(=O)Cc2ccccc2)c[nH]1	1%	i

All compounds of this part, from the start:
SMILES	Vaccinia Venus	Vaccinia mCherry
COc1cccc(C2=NN(C(C)=O)C(c3cccs3)C2)c1 (stereo not drawn)	-11%	-18%
CCC(/C=N/NC(=O)CCCCC(=O)N/N=C/C(CC)CC)CC	-12%	-1%
Cc1ccc(-c2[nH]nc(N)c2N=Nc2cccc(Cl)c2C)cc1	u	u
COCCCNC(=O)c1cc(C(=O)Cc2ccccc2)c[nH]1	1%	i
Cc1sc2ncnc(Nc3ccc(O)cc3)c2c1C	-24%	u
O=C(Nc1ccc2c(c1)OCCO2)c1cc(-c2ccccn2)nc2ccc(Br)cc12	-2%	4%
C/C=C\C=C\C(=O)N1CC2(CC(c3cccc(NC(=O)CC(c4ccccc4)c4ccccc4)c3)=NO2)C[C@H]1C(N)=O (stereo partly drawn)	u	-5%
Cc1ccc(S(=O)(=O)NCC(=O)NCC(=O)OCc2c(F)cccc2Cl)cc1	-17%	-24%
Cc1ccc(OCc2cc(C(=O)N(C)Cc3cnn(-c4ccccc4C)c3)no2)cn1	-21%	-19%
C/C(CC(=O)Nc1cccc2c1CCCC2)=N\NC(=O)COc1ccccc1	-22%	-14%
CCOc1ccc(NC(=O)CN(C)C(=O)CCC2CCCCC2)cc1OCC	-20%	-5%
COc1cccc(/C=C/C(=O)c2ccc[nH]2)c1	u	u
CCOC(=O)C(/C(N)=N/C(=O)Nc1ccccc1)=C(\C)O	-10%	-19%
COc1ccc(CCNC(=O)C2CC(c3ccccc3C(F)(F)F)=NO2)cc1 (stereo not drawn)	-14%	-7%
Cc1c(Cl)cccc1NC(=O)CSc1nnnn1C	2%	-7%
O=C(c1ccc2c(c1)OCO2)N1CCC2(CC1)Oc1ccc(F)cc1C(=O)C21CC(c2ccccc2)=NO1 (stereo not drawn)	-19%	i
CCCOc1ccc(CSCCNC(=S)Nc2ccccc2)cc1	-23%	i
CCOc1ccc(OCC)c(NC(=O)CN2CCN(CC)CC2)c1	6%	x
CCN(CC)CCNC(=O)C1CCN(c2nn3cc(-c4ccc(F)cc4)nc3s2)CC1	-19%	-13%
CCN1CCN(C(=O)c2cn(CC)c3ccc(S(=O)(=O)N(C)C)cc3c2=O)CC1	-1%	-9%

A draw from above in order of length of the SMILES, high to low:
SMILES	Vaccinia Venus	Vaccinia mCherry
O=C(c1ccc2c(c1)OCO2)N1CCC2(CC1)Oc1ccc(F)cc1C(=O)C21CC(c2ccccc2)=NO1 (stereo not drawn)	-19%	i
O=C(Nc1ccc2c(c1)OCCO2)c1cc(-c2ccccn2)nc2ccc(Br)cc12	-2%	4%
CCOc1ccc(NC(=O)CN(C)C(=O)CCC2CCCCC2)cc1OCC	-20%	-5%

Other structures
SMILES	Vaccinia Venus	Vaccinia mCherry
COc1cc(C(=O)Oc2c(Sc3ccc(C)cc3)c(C)nn2-c2ccccc2)cc(OC)c1OC	-16%	-18%
Cc1cccc(N2CCN(C(=O)CNC(=O)c3ccccc3)CC2)c1C	-15%	-19%
Cc1ccc(-c2csc(NC(=O)C3CC(=O)N(c4ccc5c(c4)OCCO5)C3)n2)o1 (stereo not drawn)	-18%	-4%
O=C(c1ccc(N2CCN(C(=O)c3ccccc3Br)CC2)cc1)c1cccc(F)c1	-23%	-19%
CCOC(=O)C1=C(C)c2ccccc2N(C(=O)OC)C1(C)C(=O)OCC (stereo not drawn)	-19%	-7%
c1ccc(Cc2c(-c3ccccc3)nc3c4ccccc4ccn23)cc1	-2%	i
O=C(CNS(=O)(=O)c1ccc(F)cc1)N1CCOCC1	3%	-6%
CC(OC(=O)c1cccc(Cl)c1)C(=O)NC1CCCCC1C (stereo not drawn)	-10%	-3%
COc1ccc(-c2c(C(F)(F)F)nn(C)c2NC(=O)CSCC(=O)O)cc1	-10%	-15%
Cc1ccc(NS(=O)(=O)c2c(C)[nH]c(C)c2C(=O)N2CCCCC2)c(Br)c1	-10%	i
Cn1c(SCCOc2ccccc2F)nc2ccccc2c1=O	-16%	-12%
O=C(O)COc1ccccc1/C=N/NC(=O)c1cc(-c2ccc(Cl)cc2)nc2ccccc12	-2%	u
COc1cc2nc(SCC(=O)Nc3c(C)cc(C)cc3C)n3nc(CCn4c(C)nc5ccccc54)nc3c2cc1OC	-14%	-10%
COC(=O)c1ccc(NC(=O)c2cc3cc(C)ccc3n2C)cc1	-12%	-8%
CCN1/C(=C2\C(=O)N(C)C(=S)N2C)C=Cc2cc(C)ccc21	-20%	u
CSc1ccccc1NC(=O)CN(C)CC(=O)Nc1cc(C)ccc1C	-19%	i
CCc1cc[n+](CC(=O)Nc2ccc(Cl)cc2Cl)cc1	-13%	i
CCCCCCC(C)OC(=O)COc1ccc(Cl)cc1Cl (stereo not drawn)	-18%	i
O=C(COc1ccc(/C=N/NC(=O)C(=O)N2CCCCCC2)cc1)Nc1ccccc1Cl	-15%	-7%
Cc1ccc(CN(C(=O)c2csnn2)C(C(=O)NC2CCCC2)c2ccco2)cc1 (stereo not drawn)	-5%	i
CCOC(=O)N1CCc2c(sc(NCc3sccc3C)c2C(=O)Nc2ccc(OC)cc2OC)C1	0%	-8%
COc1cc2[nH]c(=O)n(Cc3ccc(C(=O)N4CCN(c5ccc(Cl)cc5)CC4)cc3)c(=O)c2cc1OC	u	u
CCCN(C(=O)CSc1nc2cc(S(=O)(=O)N(CC)CC)ccc2o1)C1CCS(=O)(=O)C1 (stereo not drawn)	u	-27%
Cc1cc(N2C(=O)C(O)=C(C(=O)c3ccc(C)o3)C2c2cccs2)no1 (stereo not drawn)	-19%	-10%
COCCn1c(C)cc(O)c(C(c2ccc(OC)cc2)N2CCCCC2)c1=O (stereo not drawn)	-4%	-1%
CCC(C(=O)Nc1cc(F)ccc1F)n1nc(-c2cc(C)ccc2C)ccc1=O (stereo not drawn)	-18%	-15%
COP(=O)(/C=C/c1ccccc1)C(O)c1ccc(F)cc1 (stereo not drawn)	-13%	-15%[1.46 µM]
Cc1nc(C#N)c(N/N=C/c2cccc(Cl)c2)o1	u	u
O=C(Nc1cccnc1)OCc1ccccc1	-5%	i
O=C(COc1ccccc1N1C(=O)C2C3C=CC(C3)C2C1=O)c1ccccc1 (stereo not drawn)	-8%	-10%
CCNc1cc2oc(=O)c(CN3CCOCC3)c(C)c2cc1C	-12%	i[1.46 µM]
CN(C)CC1CCC/C(=C\c2ccc(OC(=O)/C=C/c3ccc(Cl)c(Cl)c3)cc2)C1=O (stereo not drawn)	-3%	-9%
Cc1cccc(N2C(=O)N3[C@@H]4c5ccccc5OC[C@@H]4[C@@H](c4ccccc4)[C@@]3(C)C2=O)c1	-21%	i
COc1cccc(CNC(=O)CCC(=O)N2CCSc3ccccc32)c1OC	-10%	i
CCN1CCC(O)(C#Cc2ccccc2)CC1	-16%	i
Cc1ccccc1NS(=O)(=O)c1ccc(OCC(=O)NCc2ccco2)cc1	u	x
CCOC(=O)[C@]12Cc3ccccc3[C@H]1N(C(C)C)C(=O)c1ccccc12	u	u
CC(C)(C)N(Cc1ccccc1)C(=O)COC(=O)c1ccc(S(=O)(=O)N2CCOCC2)cc1	3%	-11%
O=C(O)CSc1nnc(-c2ccco2)o1	-10%	-16%
COc1ccc(NS(=O)(=O)c2cccc(C(=O)NNC(=O)CNC(=O)c3ccccc3)c2)cc1	-4%	-11%
Cc1ccc(SCC(=O)Nc2nccs2)cc1	6%	i
COc1cc(C(=O)N2Cc3ccccc3-n3nncc3C2)cc(OC)c1OC	-14%	-11%
CCCCN(C(=O)C1CC(=O)N(c2ccc3c(c2)OCCO3)C1)c1c(N)n(CC(C)C)c(=O)[nH]c1=O (stereo not drawn)	2%	-27%
CC1(C(=O)NS(=O)(=O)c2cccc(C#N)c2)CCN1C(=O)CC1CCCCC1 (stereo not drawn)	-7%	35%[activator]
COc1cccc(/C=N/NC(=O)CCn2cnc3ccccc32)c1	-7%[7.34 µM]	i[7.34 µM]
CCOc1cc(C2C(C#N)=C(N)OC(C)=C2C(C)=O)cc(Br)c1O (stereo not drawn)	-15%	i
CCC(=O)N(CCC(Cc1ccccc1)c1ccc2c(c1)OCO2)Cc1ccccc1F (stereo not drawn)	u	u
CCOc1ccc(S(=O)(=O)N/N=C(\C)C2CCCCC2)cc1	-3%	i
O=C(Oc1cc(-c2ccccc2)no1)c1cccc(C(F)(F)F)c1	3%	x
CCN1C(=O)[C@H]2[C@@H](c3ccc(C(F)(F)F)cc3)N[C@]3(CCCN(Cc4ccco4)C3=O)[C@H]2C1=O	-21%	-10%
COc1ccc(C(=O)N2CCN(c3ncnc4c(-c5ccccc5)nsc34)CC2)cc1	-2%	-6%
COCCn1c(-c2ccc(OC)cc2)nc2ccccc21	-6%	-13%
O=C(Nc1ccc(F)cc1)c1ccccc1Oc1ccc(C(F)(F)F)cc1[N+](=O)[O-]	u	-1%
Brc1cc(Br)c(Oc2cc(Br)c(Br)cc2Br)cc1Br	-9%	i
CNC(=O)CSCc1c(Cl)cccc1Cl	-4%	-2%
Cc1occc1C(=O)NCc1nc(-c2ccccc2)no1	0%	5%
CC(C)(C)c1ccc(C(=O)NCC(c2cccs2)S(=O)(=O)c2ccc(F)cc2)cc1 (stereo not drawn)	-29%	u
COc1ccc(S(=O)(=O)Nc2c(C)c(C)cc3c2ncn3C)cc1	-8%	-3%
CN1CCCN=C1/C=C/c1cccs1	1%	i
COc1ccc(OC)c(N(CC(=O)NCc2ccccc2)S(=O)(=O)c2ccc(OC)c(OC)c2)c1	-10%	-5%

Continued.
SMILES	Vaccinia Venus	Vaccinia mCherry
Cc1ccc(C)c(NC(=O)C2CCCN(S(=O)(=O)c3cn(C)cn3)C2)c1 (stereo not drawn)	-6%	-9%
CN1CCN(c2ncc3c(n2)CC(c2ccccc2F)CC3=O)CC1 (stereo not drawn)	-15%	i
CCOC(=O)c1ccc(NC(=O)c2ccc(CN3CCOCC3)cc2)cc1	u	u
COc1ccccc1C(=O)N1CCN(c2ccccn2)CC1	3%	-10%
CC(=O)N1c2ccc(S(=O)(=O)NCC3CCC(C(=O)Nc4cc(C)ccn4)CC3)cc2CC1C (stereo not drawn)	u	-20%
O=C(CCC(=O)N1CCOc2ccccc21)NCCCc1ccccc1	-4%	3%
CSc1ccccc1NC(=O)CSc1cccc[n+]1[O-]	-12%	-14%
Cc1ccc(NC(=O)CN2C(=O)c3ccccc3C2=O)c(C)c1	-4%	u
O=C(C[n+]1ccccc1)Nc1ccccc1[N+](=O)[O-]	-2%	i
COCCCn1c(Cc2csc(Nc3ccc(F)cc3)n2)nnc1SCC(N)=O	-15%	-7%
O=C(c1ccccc1F)N1CCN=C1c1ccccc1	-11%	-17%
CCNC(=O)CN1C(=O)NC(CCc2ccccc2)C1=O (stereo not drawn)	-16%	x
CSc1ccc(/C=N/n2c(Cc3ccc(Br)cc3)n[nH]c2=S)cc1	-10%	i
O=C(O)C(Cc1ccc(O)c([N+](=O)[O-])c1)N1C(=O)c2ccccc2C1=O (stereo not drawn)	-10%	-13%
CCOC(=O)C1=C(C)N(C)C(=O)NC1c1c(C)nn(-c2ccc(C)cc2)c1Cl (stereo not drawn)	-13%	-20%
Cc1cc(C)c2cc(C#N)c(N3CCCC3)nc2c1	-14%	u
COc1ccc(-n2nc([N+](=O)[O-])c(=NCCC3=CCCCC3)n2O)cc1	-12%	-4%
CCc1ccccc1NC(=O)CSC1=C(C#N)C(c2ccc3c(c2)OCO3)C2=C(CCCC2=O)N1 (stereo not drawn)	-15%	-24%
O=C(CSCc1c(F)cccc1Cl)NCc1ccco1	9%	i
COc1cccc(CN2CCC(C)(Oc3cccc(Cl)c3)C2)c1OC (stereo not drawn)	-2%	53%[activator]
CC1CCN(C(=O)c2[nH]cnc2C(=O)N[C@@H](Cc2ccccc2)C(=O)OC(C)(C)C)CC1	-20%	-6%
COc1ccc(NC(C)=O)cc1NC(C)C(=O)Nc1ccc(S(=O)(=O)N2CCCCC2)cc1 (stereo not drawn)	-10%	i
O=C(COC(=O)c1ccc2ccccc2n1)Nc1ncc(C(F)(F)F)cc1Cl	-2%	-10%
COc1cccc(CN(C)C(=O)c2cc(S(=O)(=O)NC3CCCCC3)ccc2C)c1	-12%	-19%
Cn1c(=N)n(CC(O)c2ccccc2)c2ccccc21 (stereo not drawn)	-4%	x
CC1=C(C(=O)N(C(C)C)C(C)C)CC(CC(=O)NCc2cccc3ccccc23)C(=O)N1CCCN1CCCC1=O (stereo not drawn)	-15%	9%
CCc1cccc(CC)c1NC(=O)CCS(=O)(=O)c1ccc2c(c1)CCN2C(C)=O	-7%	-17%
